High-throughput results: PubChem, Fisher Drug Discovery Resource Center
NPYLR7 agonist = agonists of mosquito NPYLR7 receptor, primary screen, cell-based, Aedes aegypti, calcium fluorescence, mosquito biting behavior; AID 1259423, 2018; hit rate 0.15% among 270,000; HEK293T NPYLR7/Galpha15, GCaMP6s calcium fluorescence; activation, % at 10 µM; Aedes aegypti neuropeptide Y-like receptor 7 (NPYLR7); in the data active means activation above about 40%;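 further: 0% = vehicle and 100% = reference agonist at the receptor; some compounds past the cut are filed as inactive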
NPYLR7 agonist max-min = also measured in NPYLR7 agonist; calls as there; activation, %; measured here: Max-Min RFU normalised activation; some inactives read as strong as hits;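 span of the calcium signal over five minutes; 0% = vehicle and 100% = native peptide agonist; compound fluorescence can raise it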
Starred values were filed as active, the others as inactive; & = joins results of further samples. A portion of the library. The share of hits here may be higher or lower than overall.

O=C(CSC1=NS(=O)(=O)c2cc(F)ccc2N1)NCCc1ccccc1 was read as NPYLR7 agonist 10 and NPYLR7 agonist max-min 7.
Screening Cc1ccc(C(=O)N(C)Cc2cccs2)cc1NS(C)(=O)=O returned NPYLR7 agonist 9 and NPYLR7 agonist max-min 1.
`CCOc1ccccc1C(=O)N[C@H](c1nnc2c(C(F)(F)F)cccn12)C(C)C` gave NPYLR7 agonist -17 and NPYLR7 agonist max-min -25.
`COCCCNC(=O)C(NC(=O)c1cccc(C)c1)C1CCN(C(=O)c2cccc(F)c2)CC1` (configuration not stated) gave NPYLR7 agonist -3 and NPYLR7 agonist max-min 3.
For COc1ccc(NC(=O)N2CCN(c3cc(Oc4cc(C)ccc4F)ncn3)CC2C)cc1 (configuration not stated) the results were NPYLR7 agonist -7 and NPYLR7 agonist max-min -1.
`Fc1ccccc1C1CC(c2cccnc2)=Nc2nc3ccccc3n21` (configuration not stated) gave NPYLR7 agonist 2 and NPYLR7 agonist max-min 0.
`O=c1c2ccccc2[nH]c(=S)n1-c1ccc2c(c1)OC1(CCCCC1)O2` gave NPYLR7 agonist -3 and NPYLR7 agonist max-min -4.
CCc1ccc(-c2nn(CC(=O)Nc3cccc(F)c3)c(=O)c3nc(C)sc23)cc1 was read as NPYLR7 agonist 0 and NPYLR7 agonist max-min -4.
`O=C(Cn1cnc2ncc(Br)cc21)NC1CC1` gave NPYLR7 agonist -4&0 and NPYLR7 agonist max-min -4&38.
Screening COCCN(Cc1csc(COc2ccc(C)c(C)c2)n1)C(=O)NC(C)C returned NPYLR7 agonist -2 and NPYLR7 agonist max-min -8.
Screening S=C(Sc1nc(Nc2ccccc2)nc(Nc2ccccc2)n1)N1CCOCC1 returned NPYLR7 agonist 5 and NPYLR7 agonist max-min 2.
For CN(C)C1NC(=O)c2cc(-c3ccccc3)sc2N1 (configuration not stated) the results were NPYLR7 agonist -3 and NPYLR7 agonist max-min -4.
Screening Cn1cccc1C(CNC(=O)CCc1ccccc1)N1CCc2ccccc2C1 (configuration not stated) returned NPYLR7 agonist -2 and NPYLR7 agonist max-min -3.
For COc1cc(Cn2nc(-c3ccccc3)c3sc(C)nc3c2=O)cc(OC)c1 the results were NPYLR7 agonist 3 and NPYLR7 agonist max-min 2.
Cc1nn(C)c(C)c1C=CC(=O)O was read as NPYLR7 agonist -6 and NPYLR7 agonist max-min -5.
For Cc1cn2c3c(=O)n(Cc4ccc(F)cc4)c(=O)n(C)c3nc2n1C1CCCCC1 the results were NPYLR7 agonist 9 and NPYLR7 agonist max-min 12.
For COCCN(CC(=O)N(CCc1c[nH]c2ccccc12)Cc1ccc(F)cc1)C(=O)Nc1c(Cl)cccc1Cl the results were NPYLR7 agonist 15 and NPYLR7 agonist max-min 21.
Screening O=C1NC2=C(C(=O)N(CC3CCCO3)C2)C(c2ccccc2)N1 (configuration not stated) returned NPYLR7 agonist 2 and NPYLR7 agonist max-min 2.
CC1(NS(=O)(=O)c2ccccc2Cl)CCS(=O)(=O)C1 (configuration not stated) was read as NPYLR7 agonist -1 and NPYLR7 agonist max-min -1.
Screening CCC1CN(CCNC(=O)/C=C/c2cccs2)Cc2cc(OC)ccc2O1 (configuration not stated) returned NPYLR7 agonist 0 and NPYLR7 agonist max-min -1.
Screening COc1cccc2c(=O)n(CC3CCCN(CCc4ccccc4)C3)cnc12 (configuration not stated) returned NPYLR7 agonist 0 and NPYLR7 agonist max-min -1.
`COCCCN(CC(=O)N1CCc2sccc2C1c1ccc(OC)cc1)S(=O)(=O)/C=C/c1ccccc1` (configuration not stated) gave NPYLR7 agonist -5 and NPYLR7 agonist max-min -5.
Screening CCCCCN(CC(=O)Nc1cc(C(C)(C)C)nn1-c1ccc(C)cc1C)C(=O)Nc1ccc(OC)cc1 returned NPYLR7 agonist 0 and NPYLR7 agonist max-min 1.
For Cc1ccc(C)c(C(C)NC(=O)c2cccc(CS(C)(=O)=O)c2)c1 (configuration not stated) the results were NPYLR7 agonist 2 and NPYLR7 agonist max-min 1.
For CC(C)(N=NC(C)(C)C(=N)N)C(=N)N the results were NPYLR7 agonist -11 and NPYLR7 agonist max-min -16.
CCC(C)(C)NC(=O)CS(=O)(=O)Cc1ccccc1C was read as NPYLR7 agonist 11 and NPYLR7 agonist max-min 7.
`C=CCn1c2c(c(=O)[nH]c1=O)C(c1ccc(Br)cc1)C1C(=O)OCC1=N2` (configuration not stated) gave NPYLR7 agonist 0 and NPYLR7 agonist max-min 2.
CCc1ccc(CNn2cnnc2SCC(=O)NC(C)(C)C)cc1 was read as NPYLR7 agonist 4 and NPYLR7 agonist max-min 9.
For Cn1cc(S(=O)(=O)N2CCC(CN3CCc4ccccc43)CC2)cn1 the results were NPYLR7 agonist 5 and NPYLR7 agonist max-min 2.
`CCN1C(=O)C2(SCCN2C(=O)COC)c2cc(Cl)ccc21` (configuration not stated) gave NPYLR7 agonist 29 and NPYLR7 agonist max-min 26.
For Cc1sc2nc(-c3cccs3)nc(NCCC(=O)N3CCOCC3)c2c1C the results were NPYLR7 agonist -4 and NPYLR7 agonist max-min -8.
Cc1ccc(-n2ncc3c(C)nnc(SCC(=O)N4CCc5ccccc54)c32)cc1C was read as NPYLR7 agonist -8 and NPYLR7 agonist max-min -11.
For Cc1ccc(O)c(CN(C)CCc2nc3c(C)cccc3[nH]2)c1 the results were NPYLR7 agonist 22 and NPYLR7 agonist max-min 17.
O=C(Nc1ccc(F)c(Cl)c1)N1CCSC1c1cccc(C(F)(F)F)c1 (configuration not stated) was read as NPYLR7 agonist 0 and NPYLR7 agonist max-min 3.
Screening Cc1nc(SCC(=O)N2CC(C)CC(C)C2)c2c3c(sc2n1)CCC3 (configuration not stated) returned NPYLR7 agonist 1 and NPYLR7 agonist max-min -2.
Screening Cc1csc(N(C(=O)CN2C(=O)NC3(CCCC3)C2=O)c2ccccc2)n1 returned NPYLR7 agonist 9 and NPYLR7 agonist max-min 5.
Screening COc1ccc(-c2ccccc2-c2nnc(C)o2)cn1 returned NPYLR7 agonist 1 and NPYLR7 agonist max-min -1.
CCc1csc(NC(=O)C2=NOC(c3ccccc3)C2)n1 (configuration not stated) was read as NPYLR7 agonist 6 and NPYLR7 agonist max-min 0.
Screening FC(F)(F)c1ccnc(Oc2cccc(Oc3ncccn3)c2)n1 returned NPYLR7 agonist 0 and NPYLR7 agonist max-min 0.
`COc1ccc(CCN(Cc2ccc(C)o2)C(=O)CN(C(=O)c2ccco2)C2CCCCC2)cc1OC` gave NPYLR7 agonist -3 and NPYLR7 agonist max-min -4.

Part of the list above in order of molar mass, lowest first:
For CC(C)(N=NC(C)(C)C(=N)N)C(=N)N the results were NPYLR7 agonist -11 and NPYLR7 agonist max-min -16.
Screening COc1ccc(-c2ccccc2-c2nnc(C)o2)cn1 returned NPYLR7 agonist 1 and NPYLR7 agonist max-min -1.
CCc1csc(NC(=O)C2=NOC(c3ccccc3)C2)n1 (configuration not stated) was read as NPYLR7 agonist 6 and NPYLR7 agonist max-min 0.
For Cc1ccc(O)c(CN(C)CCc2nc3c(C)cccc3[nH]2)c1 the results were NPYLR7 agonist 22 and NPYLR7 agonist max-min 17.
Screening COc1cccc2c(=O)n(CC3CCCN(CCc4ccccc4)C3)cnc12 (configuration not stated) returned NPYLR7 agonist 0 and NPYLR7 agonist max-min -1.
Screening Cc1csc(N(C(=O)CN2C(=O)NC3(CCCC3)C2=O)c2ccccc2)n1 returned NPYLR7 agonist 9 and NPYLR7 agonist max-min 5.
For Cc1sc2nc(-c3cccs3)nc(NCCC(=O)N3CCOCC3)c2c1C the results were NPYLR7 agonist -4 and NPYLR7 agonist max-min -8.
O=C(Nc1ccc(F)c(Cl)c1)N1CCSC1c1cccc(C(F)(F)F)c1 (configuration not stated) was read as NPYLR7 agonist 0 and NPYLR7 agonist max-min 3.
Cc1ccc(-n2ncc3c(C)nnc(SCC(=O)N4CCc5ccccc54)c32)cc1C was read as NPYLR7 agonist -8 and NPYLR7 agonist max-min -11.
`COc1ccc(CCN(Cc2ccc(C)o2)C(=O)CN(C(=O)c2ccco2)C2CCCCC2)cc1OC` gave NPYLR7 agonist -3 and NPYLR7 agonist max-min -4.
Screening CCCCCN(CC(=O)Nc1cc(C(C)(C)C)nn1-c1ccc(C)cc1C)C(=O)Nc1ccc(OC)cc1 returned NPYLR7 agonist 0 and NPYLR7 agonist max-min 1.

Next part
For COc1cccc(-c2cc(C(=O)O)cc(S(=O)(=O)NC3CC3)c2)c1F the results were NPYLR7 agonist 9 and NPYLR7 agonist max-min 1.
COCCOC(=O)N1C[C@H](Oc2ccccn2)[C@H]2C[C@@H]1Cc1c2n(C)c2ccccc12 was read as NPYLR7 agonist 5 and NPYLR7 agonist max-min 14.
`Clc1cc(CNCc2cccs2)cc2c1OCO2` gave NPYLR7 agonist -3 and NPYLR7 agonist max-min -4.
Screening CC(C)NC(=O)NCc1ccc(NC(=O)c2cccc(Br)c2)cc1 returned NPYLR7 agonist -4 and NPYLR7 agonist max-min -10.
Screening CC(C)Cn1cc(-c2cnn(-c3ccccc3)c2)cn1 returned NPYLR7 agonist 5 and NPYLR7 agonist max-min -1.
`CN(C)CCN1C(=O)C(=O)C(=C(O)c2ccc(Cl)cc2)C1c1cccs1` (configuration not stated) gave NPYLR7 agonist -1 and NPYLR7 agonist max-min -2.
`Cc1cccc(/C=C2/SC(=Nc3ccccc3)NC2=O)n1` gave NPYLR7 agonist -6 and NPYLR7 agonist max-min -12.
COc1cc(NC(=O)c2ccc(C)o2)cc(OC)c1 was read as NPYLR7 agonist 3 and NPYLR7 agonist max-min -1.
CC(c1ccc(C2CCCC2)cc1)N(C)C (configuration not stated) was read as NPYLR7 agonist -3 and NPYLR7 agonist max-min -5.
O=C1/C(=C/c2ccc(-c3ccc(Cl)c(Cl)c3)o2)C=C(c2ccccc2)N1c1cccc(O)c1 was read as NPYLR7 agonist 12 and NPYLR7 agonist max-min 9.
For O=C(COC1CCCC1)Nc1nc(-c2ccco2)cs1 the results were NPYLR7 agonist -1 and NPYLR7 agonist max-min -1.
For O=C(CN1CCCCCC1=O)NCCNS(=O)(=O)c1ccc(Cl)cc1 the results were NPYLR7 agonist -3 and NPYLR7 agonist max-min -4.
`Cc1csc(=O)n1CC(=O)N(Cc1ccc2c(c1)OCO2)C1CCCC(C)C1C` (configuration not stated) gave NPYLR7 agonist 4 and NPYLR7 agonist max-min 1.
Screening CCCCOc1ccc(C(=O)N2CCC3(CC2)C(=O)N(CC(=O)NCc2ccccc2)CN3c2ccccc2)cc1 returned NPYLR7 agonist 5 and NPYLR7 agonist max-min 8.
CNc1cccc(-c2ccc(C(=O)NCCC#N)cc2)n1 was read as NPYLR7 agonist 2 and NPYLR7 agonist max-min 1.
Screening CC1CCCCC12NC(=O)N(CC(=O)OCC(=O)C(C)(C)C)C2=O (configuration not stated) returned NPYLR7 agonist 11 and NPYLR7 agonist max-min 11.
Screening CCc1ccc(C(=O)NS(=O)(=O)c2cccc(S(C)(=O)=O)c2)o1 returned NPYLR7 agonist 14 and NPYLR7 agonist max-min 11.
`CSc1ccc(CN2CCC2(C)C(=O)NCc2ccccc2Br)cc1` (configuration not stated) gave NPYLR7 agonist 4 and NPYLR7 agonist max-min 3.
For CCC(NC(=O)N1CCC(C)(C(=O)OC)C1)c1cccs1 (configuration not stated) the results were NPYLR7 agonist -1 and NPYLR7 agonist max-min -2.
Cn1c(=S)n(CN2CCOCC2)c2ccccc21 was read as NPYLR7 agonist 6 and NPYLR7 agonist max-min 10.
CCOc1c(Br)cc(/C=C2/SC(=S)N(CC(=O)O)C2=O)cc1Br was read as NPYLR7 agonist -4 and NPYLR7 agonist max-min 7.
For Cc1ccc(-c2ccc(C(=O)NCCCn3ccnc3C(C)C)cn2)cc1 the results were NPYLR7 agonist 3 and NPYLR7 agonist max-min -1.
For CCc1c(C(=O)N(C)c2ccccc2)cnn1-c1ccc(F)cc1 the results were NPYLR7 agonist 6 and NPYLR7 agonist max-min 5.
Screening O=C(NCCc1ccc(C(F)(F)F)cc1)N1CCN(S(=O)(=O)c2ccccc2)CC1 returned NPYLR7 agonist 4&2 and NPYLR7 agonist max-min 3&2.
CCC(C(=O)NCc1nnc(SCc2ccc(F)cc2)n1-c1cc(Cl)ccc1Cl)c1ccccc1 (configuration not stated) was read as NPYLR7 agonist 20 and NPYLR7 agonist max-min 22.
Cc1cc(O)ccc1-n1cccc1 was read as NPYLR7 agonist -10 and NPYLR7 agonist max-min -19.
For COc1ccc(-n2nc(C(=O)NCCc3ccccn3)c(=O)n(Cc3ccccc3C)c2=O)cc1OC the results were NPYLR7 agonist 3 and NPYLR7 agonist max-min 8.
Screening COc1cc(OC)cc(C2=NC(=Cc3ccc(Cl)s3)C(=O)O2)c1 returned NPYLR7 agonist 28 and NPYLR7 agonist max-min 24.
`O=c1ccc(-c2ccc(Br)cc2)nn1Cc1cccc(F)c1` gave NPYLR7 agonist 10 and NPYLR7 agonist max-min 3.
Screening Cc1ccc(C(=O)N2CCSC23CCN(C(=O)Nc2ccccc2C)CC3)cc1 returned NPYLR7 agonist 5 and NPYLR7 agonist max-min -2.
For CN(C)S(=O)(=O)c1ccc(C(=O)Nc2cc(F)ccc2F)o1 the results were NPYLR7 agonist 1 and NPYLR7 agonist max-min -1.
Screening COc1cc(C(=O)Nn2cnc3c(cnn3-c3ccc(C)c(C)c3)c2=O)cc(OC)c1OC returned NPYLR7 agonist 0 and NPYLR7 agonist max-min -3.
For C=CCOCC1CN(CCOc2ccccc2)C(=O)c2cccnc2O1 (configuration not stated) the results were NPYLR7 agonist -1 and NPYLR7 agonist max-min 8.
CN(C)c1ncnc2c1N=C1CC(C)(C)CC(=O)C1S2 (configuration not stated) was read as NPYLR7 agonist -1 and NPYLR7 agonist max-min -3.
Screening NC(=O)c1ccc(NC(=O)N2CCCC2CC(O)c2ccco2)cc1Cl (configuration not stated) returned NPYLR7 agonist 0 and NPYLR7 agonist max-min 1.
COc1ccc(CNC(=O)N2CCC(c3nnc(C4CC4)s3)CC2)cc1 was read as NPYLR7 agonist -2 and NPYLR7 agonist max-min -1.
